# Compound activity: PubChem, National Center for Advancing Translational Sciences (NCATS)
# NS1 inh – influenza NS1 inhibition; S. cerevisiae slowed by influenza A NS1, growth recovery by OD600; Potency, µM (highest dose often 46.1 µM), for the others: top-dose activity, positive = more growth; 0.4% of 270,000 active; active means well fitted rising curve with a large enough effect; inconclusive means small, poorly fitted or top-dose-only effect; inactive means no such curve, though single readings can be large or run the other way; note: nearly all actives have a fitted effect of over 50% in size
#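 Growth recovery, yeast-based: influenza A NS1 expressed in S. cerevisiae causes slow growth, and suppressors are detected by OD600. The parent strain without NS1 is used as positive control.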
# Cruzain Triton – cruzain (T. cruzi) inhibition with detergent; P25779; purified cruzain, Z-FR-AMC fluorescence, 0.01% Triton; Potency, µM, for the others: max response, negative = inhibition, actives largely listed as inhibitors; 0.43% of 200,000 active; AID 1478;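 note: plate controls were neutral wells for no effect and buffer without enzyme for full effect; nearly all actives have a fitted effect of over 40% in size; top concentration of the series not given in the record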
# Target sequence (P25779 123-467 limits assumed): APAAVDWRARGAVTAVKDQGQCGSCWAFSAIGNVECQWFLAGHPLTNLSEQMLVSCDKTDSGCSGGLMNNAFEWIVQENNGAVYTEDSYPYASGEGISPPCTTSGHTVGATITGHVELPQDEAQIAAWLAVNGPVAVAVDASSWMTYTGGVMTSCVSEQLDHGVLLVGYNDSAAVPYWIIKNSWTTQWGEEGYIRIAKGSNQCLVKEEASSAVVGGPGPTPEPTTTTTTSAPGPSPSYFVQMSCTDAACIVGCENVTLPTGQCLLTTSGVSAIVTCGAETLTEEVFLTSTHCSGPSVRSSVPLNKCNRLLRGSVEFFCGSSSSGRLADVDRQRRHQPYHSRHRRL
#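 Detergent-containing arm of a paired screen for aggregation-based inhibition: 0.01% Triton X-100 present. Cruzain at 1.5 nM cleaved 2 uM Z-FR-AMC at pH 5.5 with 5 mM DTT; AMC fluorescence gain over 60 s measured activity.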
# RE007 growth inh – less growth of the S. pombe RE007 Vpr strain | Potency, µM (highest dose often 92.2 µM), inactives show at the top dose activity change, negative = less growth | AID 651644 | S. pombe RE007 Vpr strain, BacTiter-Glo ATP luminescence, 24 h; control for the full effect not named in the record | 0.21% of 360,000 active; active = well fitted falling curve with a large enough effect; inconclusive = small, poorly fitted or top-dose-only effect; inactive = no such curve, though single readings can be large or run the other way;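 note: % is set by controls: 0 for no effect and ±100 for the full control effect; nearly all actives have a fitted effect of over 50% in size; the assay follows cell death caused by Vpr and the record does not say whether a fall means rescue or toxicity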
#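 Fission yeast strain RE007, carrying one chromosomally integrated HIV-1 vpr copy, was seeded at OD 0.01 in PMG+AL medium with 23 nL pinned compound. After 24 h at 30 °C and 99% humidity, viability was read by BacTiter-Glo luminescence.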
# Lassa entry inh – blocks Lassa virus binding to or entry into cells | Lassa virus pseudotype entry inhibition, cell reporter; control for the full effect not named in the record | Potency, µM (highest dose often 37.9 µM), without a hit: at the highest dose activity change, negative = inhibition, most hits filed as inhibitors | 1.2% of 300,000 active | AID 540256; active means well fitted inhibition curve with a large enough effect; inconclusive means small, poorly fitted or top-dose-only effect, or effect the other way; inactive means flat fitted curve, though single readings scatter; tested in HEK293 cells; note: % is set by controls: 0 for no effect and ±100 for the full control effect; nearly all actives have a fitted effect of over 50% in size; luciferase read-out
# Cruzain noTriton – inhibitors of Trypanosoma cruzi cruzain without detergent | P25779 | 2.3% of 200,000 active | purified cruzain, Z-FR-AMC fluorescence, no detergent | Potency, µM, without a hit: max response, negative = inhibition, most hits filed as inhibitors;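 note: plate controls were enzyme without inhibitor for no effect and buffer without enzyme for full effect; nearly all actives have a fitted effect of over 40% in size; top concentration of the series not given in the record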
#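 Purified cruzain at 1.5 nM, pre-incubated 15 min with compound at room temperature in 100 mM sodium acetate pH 5.5, 5 mM DTT, 0.00005% Triton X-100. Reaction started with 2 uM Z-FR-AMC; AMC fluorescence increase over 60 s gives rate.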
# SARS PLpro yeast – blocks SARS-CoV papain-like protease in a yeast assay. S. cerevisiae expressing SARS-CoV PLpro, growth rescue; control for the full effect not named in the record. Potency, µM (highest dose often 32.9 µM), for the others: at the highest dose activity, positive = growth rescue. 0.19% of 330,000 active. AID 485353; active means well fitted rising curve with a large enough effect; inconclusive means small, poorly fitted or top-dose-only effect; inactive means no such curve, though single readings can be large or run the other way; note: 0% is about no effect; nearly all actives have a fitted effect of over 55% in size; growth read by luminescence after 48 h
# 2A StopGo – lowers the luciferase signal of an FMDV 2A StopGo reporter; AID 1159524; 1.2% of 410,000 active; human cells with a luciferase reporter of 2A StopGo recoding; control for the full effect not named in the record; Potency, µM (top dose mostly 57.9 µM), for inactives: at the highest dose signal change, negative = less light; active = well fitted falling curve with a large enough effect; inconclusive = small, poorly fitted or top-dose-only effect; inactive = no such curve, though single readings can be large or run the other way; tested in HEK293T cells; note: % is set by controls: 0 for no effect and ±100 for the full control effect; nearly all actives have a fitted effect of over 45% in size; luciferase light after 4 h
# MARV entry inh – Marburg virus entry inhibition; Potency, µM (top dose mostly 37.8 µM), for inactives: at the top dose activity change, negative = inhibition, usual class: inhibitors; Marburg virus pseudotyped entry inhibition, cell reporter; control for the full effect not named in the record; about a third of the inactives were read at about 46 µM; 1.8% of 300,000 active; active = well fitted inhibition curve with a large enough effect; inconclusive = small, poorly fitted or top-dose-only effect, or effect the other way; inactive = flat fitted curve, though single readings scatter; tested in HEK293 cells; about a fifth of its hits are not listed in these tables; note: % is set by controls: 0 for no effect and ±100 for the full control effect; luciferase read-out
# * hit, by the source's call; u = inconclusive; x = not tested or not shown; & = joins results of further samples; [ ] = dose if it differs, or a comment. Unless noted, calls come from the whole dose curve; as a rule, active = well fitted curve in the direction sought with a large enough effect; inconclusive = small, poorly fitted or top-dose-only effect, or another doubt; inactive = no such curve, though single readings can be large; an effect the other way counts as inactive or inconclusive. Potency is the fitted concentration of half-maximal effect.
SMILES,NS1 inh,Cruzain Triton,RE007 growth inh,Lassa entry inh,Cruzain noTriton,SARS PLpro yeast,2A StopGo,MARV entry inh
CCOC(=O)C1CCCN(S(=O)(=O)c2ccc3c(c2)CCCN3C(C)=O)C1 (stereo not drawn),x,-1.2%,x,-12%[46.1 µM],7%,x,-22%,x
CCOC(=O)c1nnn(-c2nonc2N)c1CN(C)C1CCCCC1,-2%,5.6%,-13%,6%,-5%,-3%,-8%,u
O=C(CN1C(=O)c2ccccc2S1(=O)=O)Nc1ccc([N+](=O)[O-])cc1,x,x,17%,-2%,x,0%,-9%,u
COc1ccccc1C=NN1CCCCCC1,x,x,-13%,2%,x,x,33%[activator],u
Cc1ccccc1S(=O)(=O)N1CCN(C)CC1,-1%,x,4%,-4%,x,-9%,-13%,9%
CCC(=O)N1CCc2cc(Br)cc(S(=O)(=O)N3CCCC(C(=O)NCc4ccccc4)C3)c21 (stereo not drawn),x,-3.6%,x,-8%[46.1 µM],-7%,x,0%,6%[46.1 µM]
CC1=CC(C)C2C(=O)N(c3ccccc3)C(=O)C2C1 (stereo not drawn),1%,6.0%,-7%,15%,-11%,-8%,x,4%
N#CCCN1CCN(S(=O)(=O)c2ccc3c(c2)OCCCO3)CC1,u,9.9%,-3%,7%,-8%,13%,-4%,3%
CCNC(=O)NC(=O)C(C)Sc1nc2ccccc2c(=O)n1-c1cccnc1 (stereo not drawn),1%,x,9%,-26%,x,-4%,-15%,2%
O=C(COC(=O)C1CC1)Nc1ccc(N=Nc2ccccc2)cc1,-1%,-5.8%,7%,u,2%,2%,6%,u
CC(C)c1cccc(C(C)C)c1NC(=O)CN1C(=O)NC2(CCCC2)C1=O,-5%,x,3%,-3%,x,-6%,22%,1%
O=C(c1cc(-c2cccc(Cl)c2)on1)N1CCN(c2ccccc2)CC1,-23%,-9.6%,-14%,12%&17%[46.1 µM],1%,4%,17%&5%,u
Cc1ccc2c(NC(=O)c3ccco3)cccc2n1,10%,x,-10%,x,x,-3%,6%,x
Cc1oc(-c2ccccc2Cl)nc1CSCC(=O)O,-5%,5.6%,6%,x,6%,-4%,-6%,x
COc1cc(-c2cc(-c3ccc(N)cc3)[nH]c(=O)c2C#N)cc(OC)c1OC,u,x,-11%,11%[46.1 µM],x,2%,-9%,12%[46.1 µM]
O=C(Cn1c2[n+](c3ccc(C(F)(F)F)cc31)CCCCC2)c1ccc2c(c1)OCCO2,7%,x,-26%,x,x,-1%,-1%,x
COc1ccc(/C=C/C(=O)NC(=S)Nc2cc3oc4ccccc4c3cc2OC)cc1,8%,0.9%,13%,-12%,2.5µM*,1%,-3%,-15%
Cc1ccccc1OCC(=O)Nc1ccc(S(=O)(=O)N2CCCC2)cc1,x,x,2%,u,x,-8%,-20%,-10%[46.1 µM]
O=C(NCc1ccccc1Cl)C1CCN(S(=O)(=O)N2CCCC2)CC1,-13%,x,-4%,x,x,8%,-7%,x
Cn1c(N)c(C(=O)CSc2ccc3c(c2)OCCO3)c(=O)n(C)c1=O,2%,0.5%,6%,-7%,2%,-13%,-1%,-4%
COc1ccccc1NC(=O)CN1CCN(CC(=O)Nc2ccc(OCc3ccccc3)cc2)CC1,-103%,-2.6%,27%,11µM*,u,-2%,u,u
O/N=C(/CN(O)/C=C1/C=CC=N1)c1cccs1,-4%,-2.6%,31%,14%,-4%,2%,5%,13%
Cc1cccc(NC(=O)Cn2nc(-c3cccs3)ccc2=O)c1C,-10%,x,4%,x,x,-1%,2%,u
Cc1ccc(N=C(NO)c2cnccc2C(F)(F)F)c(C)c1,2%,x,2%,x,x,1%,-4%,x
CCN(CC)S(=O)(=O)c1ccc(NS(=O)(=O)c2ccc(C)c(C)c2)cc1,-8%,-15%,-4%,-29%,-3%,-2%,51%[activator],9%

# Molecules shown so far containing an aryl thioether with sulfur outside any ring:
SMILES,NS1 inh,Cruzain Triton,RE007 growth inh,Lassa entry inh,Cruzain noTriton,SARS PLpro yeast,2A StopGo,MARV entry inh
CCNC(=O)NC(=O)C(C)Sc1nc2ccccc2c(=O)n1-c1cccnc1 (stereo not drawn),1%,x,9%,-26%,x,-4%,-15%,2%
Cn1c(N)c(C(=O)CSc2ccc3c(c2)OCCO3)c(=O)n(C)c1=O,2%,0.5%,6%,-7%,2%,-13%,-1%,-4%

# Returning to the listing with the 3 entries that preceded the break.
SMILES,NS1 inh,Cruzain Triton,RE007 growth inh,Lassa entry inh,Cruzain noTriton,SARS PLpro yeast,2A StopGo,MARV entry inh
Cc1cccc(NC(=O)Cn2nc(-c3cccs3)ccc2=O)c1C,-10%,x,4%,x,x,-1%,2%,u
Cc1ccc(N=C(NO)c2cnccc2C(F)(F)F)c(C)c1,2%,x,2%,x,x,1%,-4%,x
CCN(CC)S(=O)(=O)c1ccc(NS(=O)(=O)c2ccc(C)c(C)c2)cc1,-8%,-15%,-4%,-29%,-3%,-2%,51%[activator],9%
CC(C)Cc1ccc(-c2cc(=O)[nH][nH]2)cc1,12%,x,11%,0%,x,1%,49%[activator],u
COc1ccc(N(CC(=O)NC2CCCCC2)C(=O)CNC(=O)c2ccco2)cc1,-6%,x,-6%,-1%,x,-1%,7%,-3%[46.1 µM]
Cc1cc(S(=O)(=O)NCCN2CCOCC2)c(C)s1,-2%,-2.2%,0%,5%,-13%,0%,14%,3%
Nc1ccc(-c2cnc[nH]2)cc1[N+](=O)[O-],5%,x,-6%,u,x,1%,1%,1%
Cc1cc(-c2ccc(N3C(=O)CCC3=O)c(C)c2)ccc1N1C(=O)CCC1=O,-2%,0.0%,-10%,1%,4%,7%,14%,2%
CCOC(=O)C1CCN(C(=O)Cn2cc3c(n2)CCC(C)C3)CC1 (stereo not drawn),u,2.1%,-1%,x,-11%,-1%,-19%,x
CCc1ccc(N(CC(=O)NC(C)C)C(=O)CCC(=O)Nc2nccs2)cc1,0%,x,-5%,-13%,x,0%,1%,-2%[46.1 µM]
COc1cc(C(=O)Nc2ccccc2N2CCOCC2)ccc1OCC(=O)N1CCOCC1,x,x,-12%,11%,x,-2%,-17%,10%
O=C(/C=C/c1cccc([N+](=O)[O-])c1)Nc1ccc(Cl)cn1,-2%,x,8%,x,x,-2%,20%,x
CCOC(=O)N1CCN(Cc2ccc(F)cc2F)CC1,0%,4.3%,-12%,24%,4%,0%,-8%,0%
Cc1ccc(Nc2cc(C)nc3c(C)cccc23)cc1,-6%,x,9%,3%[46.1 µM],x,-1%,-13%,10µM*
O=C(C1CCCO1)N1CCN(C(=S)Nc2ccc(F)c(Cl)c2)CC1 (stereo not drawn),1%,x,7%,u,x,0%,-26%,-2%[46.1 µM]
CCN1C(=O)C(CC(=O)NC)N(NC(=O)c2ccccc2)C1=S (stereo not drawn),18%,3.4%,3%,u,15%,12%,-16%,11%
Cc1ccc(-n2c(SCC(N)=O)nnc2-c2cnccn2)cc1,2%,x,10%,7%,x,0%,-10%,1%[46.1 µM]
COCc1nnc(NC(=O)c2ccc3c(c2)OCO3)s1,x,x,1%,u,x,1%,15%,u
CC(=O)Nc1ccc(Nc2nc(C(F)(F)F)nc3c2nnn3Cc2ccccc2Cl)cc1,14%,x,15%,-5%[46.1 µM],x,18%,u,-28%[46.1 µM]
O=C(NC1CCCc2ccccc21)c1cccc(F)c1 (stereo not drawn),x,x,11%,-12%[46.1 µM],x,x,3%,u
COc1ccc(Cn2c(-c3ccccc3)nc3c(c(=O)c4ccccc4n3C)c2=O)cc1,9%,2.5%,2%,8%,-8%,9%,-23%,2%
CCCC(=O)N1CCN(c2ccc(NC(=O)c3ccc(Br)o3)cc2)CC1,-8%,0.5%,-4%,1%,-12%,-1%,0%,-3%&-3%
CCn1c(SCC(=O)Nc2cc(C)on2)nc2sc(C)c(C)c2c1=O,-1%,2.8%,x,x,16%,1%,x,x
c1ccc2c(c1)NCC1CCCN21 (stereo not drawn),-3%,x,-24%,u,x,-2%,18%,-8%[46.1 µM]
CCOC(=O)Cc1csc(Nc2c(C)n(C)n(-c3ccccc3)c2=O)n1,5%,4.0%,-1%,u,5%,2%,x,15%
CCOc1ccc(/C(C)=N/NC(=O)Cn2nc([N+](=O)[O-])cc2C)cc1,1%,x,-13%,u,x,0%,7%,8%
CCOC(=O)C1(C(N)=O)OC1(c1ccc(Cl)cc1)c1ccccc1Cl (stereo not drawn),x,x,17%,-28%[46.1 µM],x,x,12%,-29%[46.1 µM]
O=C(COc1ccc(Cl)cc1Cl)N1CCCN(C(=O)COc2ccc(Cl)cc2Cl)CC1,14%,-9.3%,1%,-20%,u,-28%,u,u
Cc1[nH]c2ccccc2c1C(=O)CN1CCC(C)CC1,3%,-0.5%,8%,14%,1%,-2%,0%,3%
Cc1nn(-c2ccc(F)cc2)c(-n2cccc2)c1C(=O)NCCCN1CCN(c2cccc(Cl)c2)CC1,x,-6.3%,x,-14%[46.1 µM],1%,x,u,x

# In the list so far, these have a CF3 group:
SMILES,NS1 inh,Cruzain Triton,RE007 growth inh,Lassa entry inh,Cruzain noTriton,SARS PLpro yeast,2A StopGo,MARV entry inh
O=C(Cn1c2[n+](c3ccc(C(F)(F)F)cc31)CCCCC2)c1ccc2c(c1)OCCO2,7%,x,-26%,x,x,-1%,-1%,x
Cc1ccc(N=C(NO)c2cnccc2C(F)(F)F)c(C)c1,2%,x,2%,x,x,1%,-4%,x
CC(=O)Nc1ccc(Nc2nc(C(F)(F)F)nc3c2nnn3Cc2ccccc2Cl)cc1,14%,x,15%,-5%[46.1 µM],x,18%,u,-28%[46.1 µM]
